Compound activity from PubChem.
AmpC inh no det – Promiscuous and Specific Inhibitors of AmpC Beta-Lactamase (assay without detergent). 71,000 tested, 1.8% active. AID 585, 2007. Potency, µM (highest dose often 28.7 µM), inactives show top-dose activity change, negative = inhibition. AmpC nitrocefin hydrolysis, absorbance 480 nm, no detergent; potencies from a single point are estimates. P00811; active = falling curve, for most hits resting on a single point; inconclusive = weak or doubtful change; inactive = flat or rising curve; further: % of control where 0% means no effect; about half of the hits show no inhibition at the top dose; a quarter of the inactives give rising signals
Target sequence (P00811 whole entry, looked up): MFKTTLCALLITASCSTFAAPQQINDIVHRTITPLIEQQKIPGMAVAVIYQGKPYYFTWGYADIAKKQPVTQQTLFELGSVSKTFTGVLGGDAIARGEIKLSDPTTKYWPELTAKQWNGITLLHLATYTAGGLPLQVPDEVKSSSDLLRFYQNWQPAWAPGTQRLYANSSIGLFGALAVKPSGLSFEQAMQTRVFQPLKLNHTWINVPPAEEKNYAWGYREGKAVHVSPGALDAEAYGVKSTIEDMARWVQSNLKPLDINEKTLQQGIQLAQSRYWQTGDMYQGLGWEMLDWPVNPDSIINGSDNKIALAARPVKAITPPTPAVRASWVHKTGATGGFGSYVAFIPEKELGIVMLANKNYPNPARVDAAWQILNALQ
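AmpC, 20 mM phosphate pH 7.0; 15 min cpd preinc, RT; start with nitrocefin (800 uM stock); A480 kinetic read, 20 s intervals, 4 min. No-enzyme wells = negative control.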
Numbers without * were called inactive; ? = inconclusive; [ ] = remark or other dose. Potency means the concentration at half of the fitted maximal effect. A portion of the library (hit frequency here may not be typical).

SMILES | AmpC inh no det
COc1ccc(-c2nc(CS(=O)CC(=O)NCCC3=CCCCC3)c(C)o2)cc1 (stereo unspecified) | 122%
Cc1noc(NS(=O)(=O)c2ccc(NC(=O)C34CCC(CC3)C4)cc2)c1C | -9%
COCCCN1C(=O)C(=O)/C(=C(/O)c2ccccc2)C1c1ccc2c(c1)OCO2 (stereo unspecified) | -7%
Cc1c(C(=O)NCCC2=CCCCC2)oc2ccc(S(=O)(=O)N3CCOCC3)cc12 | 109%
Oc1cc(CN2COc3ccccc32)c(O)cc1CNC1CCCCC1 | -4%[5.75 µM]
CCOc1cccc(/C(O)=C2/C(=O)C(=O)N(CCOC)C2c2ccc(C)o2)c1 (stereo unspecified) | -12%
Cc1nnc(SCC(=O)N2CCCCC2)s1 | -6%
COc1ccc(CNc2nc3nc(C)c(Cl)c(=O)n3[nH]2)cc1OC | -10%
CC(C)Cc1nccs1 | -9%
Cc1ccc(-n2ncc3c(=O)n(CC(=O)NC4CCCCC4)cnc32)cc1C | 3%
COc1ccc2c(c1OC)C(=O)N1c3ccccc3COC21 (stereo unspecified) | 22%
CC(C)Cc1nnc(NS(=O)(=O)c2ccc(Cl)cc2)s1 | 4µM*[single pt active]
COC(=O)CSc1nnc(CNC(=O)c2ccc(S(=O)(=O)N3CCCCC3)cc2)n1C | 26%
COc1cccc2c1NC(C(=O)O)C1CC=CC21 (stereo unspecified) | 18%
Cc1nn(-c2ccccc2)c(C)c1C(=O)Nc1nnc(-c2ccco2)o1 | -6%
Cc1ccc2c(c1N)C(=O)c1ccccc1C2=O | -12%
CC1=C(C(=O)OC(C)C)C(c2cccc(F)c2)n2ncnc2N1 (stereo unspecified) | 4µM*[single pt active]
O=C(CCS(=O)(=O)c1cccs1)Nc1ccc(C(=O)NCc2cccs2)cc1 | -5%
CCS(=O)(=O)N1CCCC(C(=O)N2CCC3(CC2)OCCO3)C1 (stereo unspecified) | -8%
c1cc(N2CCCC2)ccc1C(c1nnnn1C1CCCCC1)N1CCOCC1 (stereo unspecified) | 127%
O=C(Cn1cccc1)NC1CCCCCC1 | 11%
COc1ccc2c(=O)cc(-c3ccncc3)oc2c1OC | 3%[5.75 µM]
CC1(C)CCCC2=C1CC1C(=O)N(Cc3cccnc3)C(=O)C1C2 (stereo unspecified) | 48%
CC1(C)CCC(C)(C)c2cc(C(=O)Nc3ccc(C(=O)O)cc3)ccc21 | 10%
Cc1cccc(C(=O)N(C)c2nnc(-c3ccncc3)s2)c1 | 20%

In the list so far, 15 contain nitrogen in an aromatic ring:
SMILES | AmpC inh no det
COc1ccc(-c2nc(CS(=O)CC(=O)NCCC3=CCCCC3)c(C)o2)cc1 (stereo unspecified) | 122%
Cc1noc(NS(=O)(=O)c2ccc(NC(=O)C34CCC(CC3)C4)cc2)c1C | -9%
Cc1nnc(SCC(=O)N2CCCCC2)s1 | -6%
COc1ccc(CNc2nc3nc(C)c(Cl)c(=O)n3[nH]2)cc1OC | -10%
CC(C)Cc1nccs1 | -9%
Cc1ccc(-n2ncc3c(=O)n(CC(=O)NC4CCCCC4)cnc32)cc1C | 3%
CC(C)Cc1nnc(NS(=O)(=O)c2ccc(Cl)cc2)s1 | 4µM*[single pt active]
COC(=O)CSc1nnc(CNC(=O)c2ccc(S(=O)(=O)N3CCCCC3)cc2)n1C | 26%
Cc1nn(-c2ccccc2)c(C)c1C(=O)Nc1nnc(-c2ccco2)o1 | -6%
CC1=C(C(=O)OC(C)C)C(c2cccc(F)c2)n2ncnc2N1 (stereo unspecified) | 4µM*[single pt active]
c1cc(N2CCCC2)ccc1C(c1nnnn1C1CCCCC1)N1CCOCC1 (stereo unspecified) | 127%
O=C(Cn1cccc1)NC1CCCCCC1 | 11%
COc1ccc2c(=O)cc(-c3ccncc3)oc2c1OC | 3%[5.75 µM]
CC1(C)CCCC2=C1CC1C(=O)N(Cc3cccnc3)C(=O)C1C2 (stereo unspecified) | 48%
Cc1cccc(C(=O)N(C)c2nnc(-c3ccncc3)s2)c1 | 20%

Next results follow.
SMILES | AmpC inh no det
O=C1NC(=O)C(Cc2cccs2)C(=O)N1 | -7%
OCc1cn(-c2ccccc2)nc1-c1ccc2c(c1)OCCO2 | 19%
O=C1CCc2cc(S(=O)(=O)N3CCCC3C(=O)N3CCN(c4ccccc4F)CC3)ccc2N1 (stereo unspecified) | 10%
c1ccc(CNc2nc3ccccc3n3cnnc23)nc1 | 3%
c1ccc2sc(NC3=NCN(Cc4ccc5c(c4)OCO5)CN3)nc2c1 | 0%
CCC(C)NC(=O)C1CCCN(C(=O)Nc2ccc(F)cc2)C1 (stereo unspecified) | 10%
C(=N\n1cnnc1)/c1cccc2ccccc12 | 2%
CCc1nc(C)cn1S(=O)(=O)c1cc(C)c(OC)cc1C | 60%
O=C(NCCN1C(=O)C2C3C=CC(C3)C2C1=O)N1CCOCC1 (stereo unspecified) | 4µM*[single pt active]
CCN1CCCC1Cn1c(-c2ccccc2)nc2c(NCCOC)nc(C)nc21 (stereo unspecified) | 24%
COC(=O)Nc1nnc(SCc2ccc(C)cc2)s1 | 1%
NC(=O)c1c(NC(=O)CSc2nnc(-c3ccccc3)n2CC2CCCO2)sc2c1CCC2 (stereo unspecified) | 77%
Nc1nc2c(s1)C(=O)CCC2 | -5%
CCn1c(COc2cccc(OC)c2)nnc1SCC(=O)Nc1cccc(OC)c1 | 40%
CC(=O)C(Sc1ccc2nnc(-c3ccc(C)cc3)n2n1)C(C)=O | 20%
O=C(Nc1ccccc1Sc1ccccc1)C1CCCO1 (stereo unspecified) | 42%
N=C(N)SCCc1ccc(CCSC(=N)N)cc1 | -2%
Cc1cc(Nc2ccc(F)cc2F)n2nc(C)nc2n1 | -1%
COc1ccc(OC)c(S(=O)(=O)NCCC2=CCCCC2)c1 | -7%
CSc1ccc(-c2nc(CSCC(=O)N3CCOCC3)c(C)o2)cc1 | 112%
CCSc1nc(-c2ccc(OC)cc2)n(-c2nc3ccccc3s2)n1 | -4%
Cc1cccc(-n2ncc3c(NC4CCCCC4)ncnc32)c1 | -2%
Cc1cnc(C(=O)Nc2nnc(C(C)C)s2)cn1 | -1%
CCC(CC)C(=O)NCc1ccccc1OC | -1%
Cc1ccc2c(C)nc(Nc3ncc4c(n3)CCCC4=O)nc2c1 | 11%

Additional compounds.
SMILES | AmpC inh no det
c1ccc2[nH]c(SCc3ccc(-c4nnco4)cc3)nc2c1 | -6%
CC(C)N1C(=O)C2C(C(=O)NC3CCCCC3)C3C=CC2(O3)C1C(=O)NC1CCCC1 (stereo unspecified) | 82%
Cn1c(=O)[nH]c(=O)c2c1nc(N1CCOCC1)n2CCSc1ncccn1 | -4%
COc1cccc(-n2nnc3c(=O)n(Cc4ccccc4Cl)cnc32)c1 | -13%
CC1CCCCC1NC(=O)CN1C(=O)NC(C)(c2ccc(OC(F)F)cc2)C1=O (stereo unspecified) | 22%
N#Cc1c(NC(=O)CCCN2C(=O)c3ccccc3C2=O)oc(-c2ccccc2)c1-c1ccccc1 | ?
O=C(Cc1ccccc1)Nc1nc2ccccc2[nH]1 | -17%
N[C@H](C(=O)O)[C@H](N)C(=O)O | 1%[5.75 µM]
Cc1ccc(S(=O)(=O)NC(CC(N)=O)C(=O)O)cc1 (stereo unspecified) | -1%
COCCCN=CC1=C(O)CC(C)(C)CC1=O | -9%
CCOC(=O)c1c(CC(C)C)csc1NC(C)=O | 50%
CCOc1ccccc1NC(=O)C1C2C=CC(O2)C1C(=O)O (stereo unspecified) | 3%
Cc1ccc(N(C(=O)Cn2nnc3ccccc32)C(C(=O)NCc2ccco2)c2ccc(C)o2)cc1 (stereo unspecified) | 40%
CCCc1nnc(SCC(=O)Nc2ccc(OC)cc2)n1N | 2%
CC1CCc2nn(CC(=O)NCCN3CCCCC3C)cc2C1 (stereo unspecified) | 7%
c1ccc(-c2csc3ncn4nnnc4c23)cc1 | -6%
CC(=O)c1cccc(NC(=O)N2CCCC2C(=O)NCCC(C)C)c1 (stereo unspecified) | 21%
CC(CN1CCOCC1)OC(=O)c1ccccc1Br (stereo unspecified) | 3%
C=C(C)Cn1c(SCC(=O)O)nnc1-c1ccc(C(C)(C)C)cc1 | 18%
COc1cc2cc(C(c3nnnn3C3CCCC3)N3CCCCC3)c(=O)[nH]c2cc1OC (stereo unspecified) | 74%
Cn1c(C(O)c2ccccc2F)nc(Cl)c1Cl (stereo unspecified) | 2%
O=C(c1ccc(Br)o1)N1CCN=C1SCc1cccnc1 | 2%
Cc1ccc(OCC(=O)N2CCCCC2)c(Br)c1 | 33%
CCN(CC)c1nc2n(c(=O)n1)CCO2 | -5%
O=C(Cc1cccs1)OCC(=O)c1ccco1 | -6%

Other compounds
SMILES | AmpC inh no det
Cc1ccc([N+](=O)[O-])cc1N | -4%
CN(C)C(=O)Nc1cnc2ccccc2c1 | 0%
O=C(Cc1ccccc1)Nc1ccc(-c2nnc(-c3ccco3)o2)cc1 | -13%
CCCCCOc1ccc(C2C(C(C)=O)=C(C)Nc3ncnn32)cc1OC (stereo unspecified) | 49%
Cn1c(=O)n(C)c2cc(S(=O)(=O)NCc3ccco3)ccc21 | 0%
COC(=O)c1sc(N2C(=O)C(O)=C(C(=O)c3ccc(C)o3)C2c2ccc(F)cc2)nc1C (stereo unspecified) | -20%
Cc1cc(C)n2c(SCCN3C(=O)c4ccccc4C3=O)nnc2n1 | 11%
Cc1ccc(Cl)c2c1NC(=O)C2(O)CC(=O)c1ccccc1O (stereo unspecified) | -12%
Cc1sc(NC(=O)c2oc3ccccc3c2C)c(C#N)c1C | -15%
COc1ccccc1-c1coc2cc(O)cc(O)c2c1=O | -20%
Cc1ccc(-c2nn(C)c(=O)c3ccccc23)cc1S(=O)(=O)N1CCCC1 | 150%
CCC(C)(C)n1nnnc1C(c1cc2cc(OC)ccc2[nH]c1=O)N1CCc2ccccc21 (stereo unspecified) | 62%
O=C(Nc1ccon1)c1cc(-c2ccccc2)nc2ccccc12 | 1%
Cc1ccc(S(=O)(=O)c2cccc(S(=O)(=O)N3CCCC3)c2)cc1S(=O)(=O)N1CCCC1 | 44%
COc1ccc(S(=O)(=O)NC(C)C(=O)Nc2ccccc2F)cc1 (stereo unspecified) | -4%
CCOCCn1c(SCC)nc2c1c(=O)[nH]c(=O)n2C | -4%
COc1ccccc1C1C(C(=O)c2sc(C)nc2C)=C(O)C(=O)N1CCN1CCOCC1 (stereo unspecified) | 7%
CCN(CC)S(=O)(=O)c1cccc(C(=O)Nc2cc(C)nn2-c2nc(C)cc(C)n2)c1 | 98%
COc1ccc(NC(=O)CN2CCN(S(=O)(=O)c3ccc(C(C)C)cc3)CC2)cc1OC | 136%
c1ccc(Cn2ncc3c(N4CCCCC4)ncnc32)cc1 | 15%
CC(C)(CO)NC(=O)C(c1ccccc1)c1ccccc1 | 2%
O=C(Nc1ccccc1C(F)(F)F)c1cc(S(=O)(=O)N2CCC3(CC2)OCCO3)ccc1F | 73%
O=C(c1ccc(COc2ccccc2Cl)o1)N1CCN(Cc2ccc3c(c2)OCO3)CC1 | 86%
COc1ccc(NCc2nnc(SCC#N)n2-c2ccccc2OC)cc1 | -12%
CC(=O)c1cccc(-n2nnnc2SCC(=O)Nc2cccc(NC(=O)c3ccco3)c2)c1 | -9%

Continuation:
SMILES | AmpC inh no det
O=C(Nc1ccc2c(c1)OCO2)C(c1ccccc1)N1CCN(C(=O)c2ccco2)CC1 (stereo unspecified) | 48%
COC(=O)c1ccc(OCCn2cnc3ccccc3c2=O)cc1 | 24%
O=C(Oc1ccccc1)N1CCC2(CCCN(C(c3ccccc3)c3ccccc3)C2)CC1 | -9%
COC(=O)c1ccc(CSc2nc3c(c(=O)n2-c2ccccc2)SCC3)o1 | 3%
Cc1nn(-c2ccccc2)c2sc(-c3n[nH]c(=S)o3)cc12 | ?
CCCn1c(C)nc2c(NCCN3CCCC3)nc(C)nc21 | 42%
COc1ccc(C2N(c3ccc(OC)cc3)C(=O)C3CCCN32)cc1 (stereo unspecified) | 21%
COc1cccc(-c2cc(C(=O)Nc3cc(OC)c(OC)c(OC)c3)no2)c1 | 104%
CCOC(=O)N1CCN(S(=O)(=O)c2cccc3ccc(C)nc23)CC1 | 20%
CCCC1C(C#N)=C(N)Oc2cc(C)n(C)c(=O)c21 (stereo unspecified) | 9%
COC(=O)c1cccc(NC(=O)CSc2nc(C)cc(=O)[nH]2)c1 | -10%
COC(=O)[C@@]1(Cc2ccccc2)[C@H]2c3cc(C(=O)N4CCCC4)n(CCN4CNCC4=O)c3C[C@H]2CN1C(=O)c1ccccc1 | 164%
CCOC(=O)c1ccc(Oc2nc(NC)nc(OC)n2)cc1 | 7%
CCn1cc(C(=O)Nc2cc3c(cc2NC(C)=O)OCCO3)c(=O)c2ccc(C)nc21 | 40%
Cc1ccc(-c2noc(CCC(=O)NCc3ccc4c(c3)OCO4)n2)cc1 | 6%
CC(C)(c1cc(Br)c(O)c(Br)c1)c1cc(Br)c(O)c(Br)c1 | ?
CCN(CC)CCC(=O)NC(C)(C)Cc1ccc(O)cc1 | -6%
CCOC(=O)CN1CC23C=CC(O2)C(C(=O)NC2CCCCCC2)C3C1=O (stereo unspecified) | 10%
Cc1nc(Cc2nnc(SCc3nc(N)nc(Nc4ccccc4C)n3)o2)cs1 | 32%
CC(=O)c1c(C(C)=O)c(C)n(NC(=O)c2ccccc2O)c1C | -2%
Cc1nc2c(C(=O)NCCC3=CCCCC3)c[nH]n2c(=O)c1Cl | 8%
Cc1cc2c(cc1C)NC1=C(N2)O[C@H](c2c[nH]c3ccc(COc4ccccc4)cc23)C1=O | -11%[5.75 µM]
Cc1ccc(C(c2nnnn2CCC(C)C)N2CCN(C)CC2)cc1 (stereo unspecified) | 27%
C=CCNc1nc(NC(C)(C)CO)nc(OCC)n1 | -8%
CCOC(=O)C1CCCN(C(=O)C2CCN(S(=O)(=O)N3CCC4(CC3)OCCO4)CC2)C1 (stereo unspecified) | 28%
O=NN1CCCCC1 | -4%
